Screening results (PubChem)
HPGD inh: inhibitors of human 15-hydroxyprostaglandin dehydrogenase (HPGD). purified HPGD, NADH fluorescence kinetic, PGE2 substrate. Potency, µM, for inactives: top-dose activity change, negative = inhibition, hits mostly inhibitors. hit rate 4.3% among 150,000; active = well fitted inhibition curve with a large enough effect (not every such curve was filed as active); inconclusive = small, poorly fitted or top-dose-only effect, or another doubt; inactive = no such curve, though single readings can be large or run the other way;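 note: top concentration of the series not given in the record; plate controls included wells without enzyme; inactives centre near -10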
Target sequence (P15428 whole entry, looked up): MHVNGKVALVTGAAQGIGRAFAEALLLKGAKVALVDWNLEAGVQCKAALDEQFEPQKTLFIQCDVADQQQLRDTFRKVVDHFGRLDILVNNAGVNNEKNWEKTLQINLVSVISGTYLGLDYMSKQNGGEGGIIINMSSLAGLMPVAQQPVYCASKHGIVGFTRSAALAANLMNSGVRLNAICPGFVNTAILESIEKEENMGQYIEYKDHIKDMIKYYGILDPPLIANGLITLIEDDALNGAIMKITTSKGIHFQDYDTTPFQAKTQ
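NADH formation kinetics: reaction with 30 uM PGE2 and 1 mM NAD+ (final), 20 nM enzyme, Tris-HCl pH 8 with Tween 20, after 15 min compound preincubation at room temperature. Fluorescence change, last versus first of five reads.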
Active calls of the source: *; ? = inconclusive; & = joins results of further samples. % is set by controls: 0 for no effect and ±100 for the full control effect; potency is the fitted concentration of half-maximal effect. Not all compounds are listed; rates above refer to the full screens.

HPGD inh | Compound
-13% | Cc1cc(C(=O)CSc2nc(N)cc(N)n2)c(C)n1-c1cccc(C(F)(F)F)c1
-3% | Cc1ccc(C)c(NC(=O)c2ccc(N(C)S(C)(=O)=O)cc2)c1
-10% | Cc1ccc(CCc2nnc(SCC(=O)Nc3ccccc3Cl)n2-c2ccccc2)o1
-10% | Cc1ccc(CCNC(=O)C2CCC(=O)N2Cc2cccnc2)cc1 (stereo not drawn)
-14% | COc1ccc(/C(O)=C2/C(=O)C(=O)N(CCCN(C)C)C2c2ccccc2)cc1OC (stereo not drawn)
-5% | Cc1c(NC(=O)Nc2ccccc2)cccc1[N+](=O)[O-]
-15% | COc1ccccc1/C=C(/C(=O)OCC(=O)Nc1ccccc1C(C)C)c1ccccc1
? | CCc1c(C)nc2ncnn2c1N1CCCC(C(=O)Nc2ccc(NC(C)=O)cc2)C1 (stereo not drawn)
1% | CC(C)N=C(Nc1ccccc1)c1cccnc1
-9% | CCC(CC)C(=O)NCCN1CCN(C(=O)C(CC)CC)CC1
1% | Cc1onc(-c2ccccc2)c1C(=O)n1cccn1
-8% | CC(C)COC(=O)Nc1nnc(SCCOc2ccccc2)s1
-14% | COc1cc(SC)ccc1C(=O)NCCc1ccccc1
-17% | O=C(Cn1cnc2c(nnn2Cc2ccc(F)cc2)c1=O)N1CCCCC1
-10% | O=C(CCCn1c(=S)[nH]c2cc3c(cc2c1=O)OCO3)N1CCN(c2ccccc2F)CC1
2% | Cc1ccc(OCC(=O)Nc2ccc([N+](=O)[O-])cc2)cc1
-26% | CC1CCc2cc(F)ccc2N1C(=O)CSc1nnc2c(n1)[nH]c1ccc(F)cc12 (stereo not drawn)
-10% | O=C1c2oc3ccc(F)cc3c(=O)c2C(c2ccccc2)N1CC1CCCO1 (stereo not drawn)
-8% | Cc1ccccc1NC(NC(=O)c1cccnc1)C(Cl)(Cl)Cl (stereo not drawn)
? | COc1cc(OC)c(C2C3=C(CCCC3=O)Nc3nc4ccccc4n32)cc1OC (stereo not drawn)
-15% | COc1ccccc1NC(=O)COc1ccc(/C=N/NC(=O)CSCc2ccc(Cl)cc2)cc1
-7% | Cc1ccc(C(=O)n2cnnc2N)cc1
-24% | COc1cccc(-c2cc(C(F)(F)F)n3ncc(C(=O)O)c3n2)c1
-17% | Cc1ccc(F)cc1NC(=O)CCC(=O)c1cccs1
-3% | CCc1cc(C)cc(OCCNC(=O)c2ncn[nH]2)c1
-13% | N#Cc1cc2ccccc2nc1SCC(=O)Nc1ccc(S(=O)(=O)N2CCCC2)cc1
-5% | Cc1cccc(NC(=O)c2nc[nH]c2C(=O)Nc2ccccc2[N+](=O)[O-])c1
? | COc1ccc(-c2coc3cc(O)ccc3c2=O)c(OC)c1O
-29% | CCOC(=O)c1cc(-c2ccccc2)sc1NC(=O)CN1C(=O)NC(CC)(c2ccccc2)C1=O (stereo not drawn)
-1% | O=C(NCC1COc2ccccc2O1)C1C2C=CC3(CN(Cc4cccs4)C(=O)C13)O2 (stereo not drawn)
-28% | Cc1[nH]c2ccccc2c1C(=O)COC(=O)c1c(-c2ccccc2Cl)noc1C
-10% | COc1cccc(/C=N/NC(=O)CN(CCc2ccccc2)S(=O)(=O)c2ccc(NC(C)=O)cc2)c1
? | Cc1ccc(-n2c(N)c(C(=O)NCc3ccco3)sc2=S)cc1
-10% | CCNC(=S)N/N=C/c1c(Cl)cccc1Cl
-3% | COc1ccccc1CCn1c(=O)c(-c2ccc(Cl)cc2)nc2cncnc21
-7% | Cc1ccc(CNC(=O)CCNS(=O)(=O)c2ccc(C)cc2)cc1
-8% | COc1ccc(Cn2c(O)c(C=Nc3ccc(C)cc3)c3ccccc3c2=O)cc1
-17% | COC(=O)c1cc(NC(=O)CSc2nncn2C)cc(C(=O)OC)c1
-12% | CCOC(=O)c1sc2ncn(C(C)C(=O)OCC)c(=O)c2c1C (stereo not drawn)
-28% | CCn1c(CC(=O)Nc2cccc(OC)c2)nnc1SCC(=O)Nc1nccs1
-16% | O=C(Cn1nc([N+](=O)[O-])nc1Br)NC(c1ccccc1)c1ccccc1
-23% | Brc1cc2c(cc1Cn1c(-c3cncs3)nc3ccccc31)OCO2
-8% | O=S(=O)(N/N=C/c1c(F)cccc1Cl)c1ccccc1
-5% | CCn1c(SCC(=O)NCCc2ccc(OC)c(OC)c2)nc2c1c(=O)n(C)c(=O)n2C
-17% | CCOC(=O)c1[nH]c(C)c(C(=O)NCc2ccc(OC)cc2)c1C
-9% | NCC1OC(O[C@@H]2[C@H](O)[C@@H](OC3C(O)C(N)CC(N)C3OC3OC(CO)C(O)C(O)C3N)O[C@@H]2CO)C(N)C(O)C1O (stereo partly drawn)
-8% | CCCCOC(=O)CCNc1n[nH]c(=O)[nH]c1=O
-21% | Nc1nc2c([nH]c(=S)n2C2OC(CO)C(O)C2O)c(=O)[nH]1 (stereo not drawn)
-15% | O=[N+]([O-])c1cccc(N/N=C/c2cccc3ccccc23)c1
-11% | Cc1cc(C)cc(-n2ccnc2SCC(=O)Nc2ccc3c(c2)OCCO3)c1
-6% | O=C(NCCCN1CCOCC1)c1cc(-c2ccc(F)cc2)on1
0% | CCc1ccc(C(=O)c2ccccc2C(=O)O)s1
-28% | CCOC(=O)N1CCN(C(=O)c2cccn3c(=O)c4cc(Cl)ccc4nc23)CC1
? | CCn1c(NC(=O)c2ccc(COc3ccc(C)cc3[N+](=O)[O-])o2)nc2ccccc21
-5% | CCN(CC)CP(=O)(c1ccccc1)c1ccccc1
-12% | O=S(=O)(Nc1cccnc1)c1cccc(C(F)(F)F)c1
-26% | Cn1c(SC/C=C/c2ccccc2)nnc1-c1ccco1
-21% | O=C1OCCC1Sc1nc2cc(Cl)ccc2n1Cc1ccccc1 (stereo not drawn)
-18% | Cc1ccc(CNC(=O)C23CN(Cc4ccccc4)CC2C(c2ccc([N+](=O)[O-])cc2)=NO3)o1 (stereo not drawn)
? | CCCOc1ccc(-c2nnc(-c3ccncc3)o2)cc1

Going on with the list.
HPGD inh | Compound
-11% | CC1(O)C(=O)C=C2C=C(c3ccc(C#N)cc3)OC=C2C1=O (stereo not drawn)
-7% | COCC(C)NS(=O)(=O)c1ccc(NC(=O)C(Cc2ccccc2)NC(N)=O)cc1 (stereo not drawn)
1% | CCOCc1nnc(NC(C)=O)s1
-15% | COc1ccc(OC)c(NC(=O)c2cccc(Cn3cc(Br)c([N+](=O)[O-])n3)c2)c1
0% | Cc1ccc(-n2[nH]c(C)c(CCC#N)c2=O)cc1
-16% | O=C(NNC(=O)c1cccnc1SCc1cccc([N+](=O)[O-])c1)c1cccnc1
? | CCOc1ccc(-c2nnc3ccc(SCc4ccc(C(=O)OC)o4)nn23)cc1
-2% | O=C(NC1CCCCC1)N1CCC(n2c(=O)[nH]c3ccccc32)CC1
-5% | C[C@H]1[C@H](C)CC[C@]2(C(=O)O)CC[C@]3(C)C(=CC[C@@H]4[C@@]5(C)C[C@@H](O)[C@H](O)C(C)(C)[C@@H]5CC[C@]43C)[C@H]12
-5% | Cc1cc(NC(=O)CSc2nnc(Cn3c(=O)sc4ccccc43)n2-c2ccccc2C)no1
-13% | CC(C)(C)c1ccc(C(=O)NCC(=O)OCC(=O)Nc2ccc3c(c2)OCCO3)cc1
-4% | CCOC(=O)CCCCC(=O)c1[nH]c(=O)[nH]c1CN1CCOCC1
0% | O=C(O)C1CCCCC1C(=O)Nc1ccc(F)c(F)c1 (stereo not drawn)
-14% | Cc1ccoc1C(=O)NCCNc1ccc(Cl)cc1[N+](=O)[O-]
-11% | CCC(=O)N1c2ccc(S(=O)(=O)CCC(=O)NC3CCCC3)cc2CC1C (stereo not drawn)

A different layout for some results above:
SMILES | HPGD inh
CCOCc1nnc(NC(C)=O)s1 | 1%
Cc1ccc(CNC(=O)C23CN(Cc4ccccc4)CC2C(c2ccc([N+](=O)[O-])cc2)=NO3)o1 (stereo not drawn) | -18%

(further entries)
HPGD inh | Compound
-22% | Cc1ccccc1S(=O)(=O)NC1=NCCCCC1
-7% | O=C(COC(=O)C12CC3CC(CC(C3)C1)C2)Nc1ccc([N+](=O)[O-])cc1Cl
8% | CCOc1ccc(NC(=O)Cn2nnc(C(=O)NCc3ccco3)c2N)cc1
-14% | CCC(C)C(=O)Nc1nc(C)c(-c2csc(Nc3cc(OC)ccc3OC)n2)s1 (stereo not drawn)
-20% | COC(=O)c1c(NC(=O)COC(=O)Cn2cnc3ccccc32)sc2c1CCCC2
-6% | O=C(O)Cc1ccc(-c2ccccc2-c2ccccc2)cc1
-24% | c1ccc(Cn2c(CSc3nnnn3-c3ccccc3)nc3ccccc32)cc1
1% | Cc1ccc(NC2OC(CO)C(O)C(O)C2O)cc1 (stereo not drawn)
-10% | O=C1CC(NNc2ccccc2)C(=O)N1c1ccccc1 (stereo not drawn)
-10% | CCc1ccc(NC2CC(=O)N(c3ccc(OC)cc3OC)C2=O)cc1 (stereo not drawn)
-5% | CC(=O)c1sc(NC(=O)C(C)C)nc1C
0% | Cc1cc(C)n2nc(SCC(=O)N/N=C/c3ccccn3)nc2n1
-22% | COc1ccc(OC)c(/C=c2\sc3nc(-c4cccs4)nn3c2=O)c1
-20% | O=C(CSc1ccc2ccccc2c1Br)Nc1cccc(S(=O)(=O)NC2=NCCCCC2)c1
-9% | CCc1ccccc1N1CC23C=CC(O2)C(C(=O)OCC(C)C)C3C1=O (stereo not drawn)
-11% | O=C1CC(N2CCN(c3ccc(F)cc3)CC2)C(=O)N1Cc1cccs1 (stereo not drawn)
-19% | COc1ccc(CCNC(=O)CCN2C(=O)COc3ccc(C)cc32)cc1OC
-11% | COc1ccccc1NC(=O)C1CCCN(S(=O)(=O)c2cnc[nH]2)C1 (stereo not drawn)
-2% | CS(=O)(=O)N1CCN(c2ccc(Cl)cc2[N+](=O)[O-])CC1
-13% | CCOC(=O)c1c(NC(=O)/C=C/c2ccco2)sc(C)c1C
-6% | Cc1cc(Cl)ccc1Oc1ncc(-c2ccc(Cl)cc2)cn1
-3% | CCCCn1c(SCC(=O)OC)nc2c1c(=O)n(C)c(=O)n2C
-5% | O=C(Nc1ccccc1)OC[C@H](CN1CCCCC1)OC(=O)Nc1ccccc1
-5%&-12%&2% | C[C@]12CCC(=O)C=C1CC[C@@H]1[C@@H]2[C@@H](O)C[C@@]2(C)[C@H]1CC[C@]2(O)C(=O)COC(=O)CCC(=O)O
-13% | CCNC(=S)N1C2CCC1CC(NC(=O)NC1CCCCC1)C2 (stereo not drawn)
? | O=C(c1cccs1)n1nc(-c2ccccc2)nc1NCc1ccc(F)cc1
-17% | Cc1ccc(/C=c2\sc3n(c2=O)CN(c2ccc(Br)cc2)CN=3)o1
-8% | O=C(O)C(Cc1ccccc1)NS(=O)(=O)c1ccc2c(c1)OCCO2 (stereo not drawn)
-27% | Cc1noc(C)c1CSc1ncnc2sc3c(c12)CCC(C)C3 (stereo not drawn)
-20% | CCC(CC)NC(=O)CSc1nnc(-c2ccc(OC)cc2)n1C(C)C
-4% | CC(=O)Nc1ccc(S(=O)(=O)NNC(=O)COc2cc(C)ccc2C(C)C)cc1
-21% | Clc1cnc(N/N=C/c2cccs2)c(Cl)c1
-16% | c1ccc(OCCSc2nnnn2C2CCCCC2)cc1
-16% | CC(=O)Nc1ccc(C(=O)CSc2cc(C)c3cccc(C)c3n2)cc1
? | COc1cc(CCC(=O)N2CCN(c3ccc(N4CCOCC4)nn3)CC2)cc(OC)c1OC
-16% | CC1CC/C(=C\c2ccc3c(c2)OCO3)C(=O)/C1=C/c1ccc2c(c1)OCO2 (stereo not drawn)
-13% | O=C(Nc1ccc([N+](=O)[O-])cn1)c1cc(-c2cccc(Br)c2)nc2ccccc12
1% | CCOc1ccc(-n2cnnn2)cc1S(=O)(=O)NCCc1ccc(OC)c(OC)c1
-8% | CN1CCC(Oc2ccc(Sc3ccccc3)cc2)CC1
-24% | N#CC1(c2ccc(NC(=O)c3ccccc3)cc2)CCCC1
-23% | COC(=O)C1CCN(C(=O)c2sc3nc(-c4ccc(F)cc4)cn3c2C)CC1
-3% | O=C(CNS(=O)(=O)c1cccc2nonc12)NCc1ccc(F)cc1
-9% | CCCN[C@@H](C)C(=O)Nc1ccccc1C
-128% | CCCCCCc1cc2cc(S(=O)(=O)c3ccc(F)cc3)c(=O)oc2cc1O
-4% | CCn1c(COc2ccc(OC)cc2)nc2ccccc21
-14% | Nc1nc(SCC(=O)NCCC(c2ccccc2)c2ccccc2)n[nH]1
-7% | CC(C)OCCCNC(=O)CCC(=O)NNc1nc2ccccc2c2nc(-c3ccccc3)nn12
-19% | CN=C1S/C(=C\c2ccc(N3CCOCC3)c(F)c2)C(=O)N1C
-17% | O=C(Nc1ncccc1Cl)c1ccccc1F

Reformatted tab-delimited: 15 of the compounds above.
canonical_smiles	HPGD inh
COc1cc(CCC(=O)N2CCN(c3ccc(N4CCOCC4)nn3)CC2)cc(OC)c1OC	?
CC1CC/C(=C\c2ccc3c(c2)OCO3)C(=O)/C1=C/c1ccc2c(c1)OCO2 (stereo not drawn)	-16%
O=C(Nc1ccc([N+](=O)[O-])cn1)c1cc(-c2cccc(Br)c2)nc2ccccc12	-13%
CCOc1ccc(-n2cnnn2)cc1S(=O)(=O)NCCc1ccc(OC)c(OC)c1	1%
CN1CCC(Oc2ccc(Sc3ccccc3)cc2)CC1	-8%
N#CC1(c2ccc(NC(=O)c3ccccc3)cc2)CCCC1	-24%
COC(=O)C1CCN(C(=O)c2sc3nc(-c4ccc(F)cc4)cn3c2C)CC1	-23%
O=C(CNS(=O)(=O)c1cccc2nonc12)NCc1ccc(F)cc1	-3%
CCCN[C@@H](C)C(=O)Nc1ccccc1C	-9%
CCCCCCc1cc2cc(S(=O)(=O)c3ccc(F)cc3)c(=O)oc2cc1O	-128%
CCn1c(COc2ccc(OC)cc2)nc2ccccc21	-4%
Nc1nc(SCC(=O)NCCC(c2ccccc2)c2ccccc2)n[nH]1	-14%
CC(C)OCCCNC(=O)CCC(=O)NNc1nc2ccccc2c2nc(-c3ccccc3)nn12	-7%
CN=C1S/C(=C\c2ccc(N3CCOCC3)c(F)c2)C(=O)N1C	-19%
O=C(Nc1ncccc1Cl)c1ccccc1F	-17%
